# Assay outcomes as filed in PubChem BioAssay.
# MenB inh: inhibitors of Mycobacterium tuberculosis MenB enzyme. MenB enzyme assay, absorbance read-out; some hits fall short of the stated cut. P9WNP5. hit rate 0.43% among 100,000. inhibition, %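 (about 12 µg/mL by stock and volumes)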;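 active = mean of two replicates above 30%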;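 also: 0% = no compound and 100% = wells with inactive enzyme; the first replicate is given; strong numbers were not always called active; inactives centre near -10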
# Mtb MbtI inh: MbtI salicylate synthase inhibition. hit rate 0.89% among 100,000. P9WFX0. inhibition, %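 (about 17 µg/mL by stock and volumes)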. purified MbtI enzyme, fluorescence intensity read-out;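 active = above 50% in both replicates, above 80% if mildly self-fluorescent; inactive = the rest, strongly fluorescent compounds included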;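 also: 0% = mean of negative and 100% = mean of positive controls; one replicate is shown; some compounds called inactive have numbers as strong as hits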
# Target sequence (P9WFX0 whole entry, looked up): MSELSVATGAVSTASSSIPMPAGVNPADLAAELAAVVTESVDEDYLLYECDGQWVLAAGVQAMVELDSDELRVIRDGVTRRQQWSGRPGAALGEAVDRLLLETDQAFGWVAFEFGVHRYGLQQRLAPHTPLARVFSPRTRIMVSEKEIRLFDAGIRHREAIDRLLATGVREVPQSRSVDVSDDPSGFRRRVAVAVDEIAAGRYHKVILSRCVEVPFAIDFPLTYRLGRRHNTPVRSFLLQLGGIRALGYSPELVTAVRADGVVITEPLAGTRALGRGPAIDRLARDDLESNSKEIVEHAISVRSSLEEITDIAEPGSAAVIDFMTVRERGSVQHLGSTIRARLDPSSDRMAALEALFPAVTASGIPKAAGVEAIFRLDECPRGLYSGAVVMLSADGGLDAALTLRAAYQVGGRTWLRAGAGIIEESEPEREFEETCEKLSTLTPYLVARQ
# PV pol inh: inhibitors of poliovirus RNA polymerase binding and polymerization; % elongation, % (compound at 16.7 µg/mL); poliovirus polymerase elongation, fluorescence polarization; hits give low values; hit rate 0.66% among 150,000; P03300; in the data active = % elongation below about 90%; also: some results filed as inactive read as strong as hits
# Target sequence (P03300 1749-2209 limits assumed): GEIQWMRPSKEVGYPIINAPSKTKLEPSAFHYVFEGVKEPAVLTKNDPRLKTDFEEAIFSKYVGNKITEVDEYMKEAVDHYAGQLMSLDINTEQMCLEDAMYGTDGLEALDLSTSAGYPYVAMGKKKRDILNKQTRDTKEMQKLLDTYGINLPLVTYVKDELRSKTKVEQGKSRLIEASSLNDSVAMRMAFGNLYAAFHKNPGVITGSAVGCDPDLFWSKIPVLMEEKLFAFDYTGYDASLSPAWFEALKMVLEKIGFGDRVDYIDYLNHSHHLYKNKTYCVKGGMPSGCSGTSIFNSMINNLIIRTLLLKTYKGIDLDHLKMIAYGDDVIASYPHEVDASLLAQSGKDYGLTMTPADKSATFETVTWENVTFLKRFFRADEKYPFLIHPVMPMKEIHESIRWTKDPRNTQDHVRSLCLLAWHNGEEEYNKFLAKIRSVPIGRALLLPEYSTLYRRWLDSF
# PV pol inh intensity: second read-out of PV pol inh, no call of its own (marks repeat the call); % elongation; measured here: total intensity read-out; formula for this scale not given here;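 total fluorescence in place of polarization; lower means less elongation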
# Starred values were filed as active, the others as inactive; i = inactive; . = not tested or not shown; & = joins results of further samples.
nr	molecule	PV pol inh intensity	Mtb MbtI inh	PV pol inh	MenB inh
1	O=C1Sc2cccc3cccc1c23	104	-1	102	-40
2	Cc1cc(CN2CCC(C)CC2)cc(C)c1O	102	7	101	-37
3	O=C(O)c1ccccc1C(=O)Nc1ccc2c(c1)OCCO2	109	3	105	-17
4	COc1cccc(-c2nc3c(c(SCC(=O)N4CCOCC4)n2)Cc2c(CO)cnc(C)c2O3)c1	99	8	103	-32
5	O=C(COc1ccc2c(c1)oc(=O)c1ccccc12)Nc1ccc(F)cc1	98	6	103	.
6	NC(=O)CN1/C(=C(/O)c2ccccc2)C(=O)c2ccccc2S1(=O)=O	99	-3	105	i
7	CC(C)NC(=S)NCc1cccs1	101	1	100	1
8	Cc1cc(C)c(C)c(S(=O)(=O)N2CC(O)CC2C(=O)O)c1C (stereo not drawn)	104	-11	104	-12
9	NC(=O)Nc1nc2cc(Cl)cc(Cl)c2[nH]c1=O	101	2	99	-76
10	CCC1SC(CC)C(=O)N(CC(=O)NCc2ccc(F)cc2)C1=O (stereo not drawn)	99	0	103	-6
11	CN(C)S(=O)(=O)Nc1cccc(N)c1	93	.	106	-10
12	O=C(Nc1ccccc1C(=O)O)c1cc2ccccc2c(=O)o1	99	-8	99	0
13	C=CCn1nc2sc3ccccc3n2c(=O)c1=O	109	-10	102	13
14	O=C1c2ccccc2C(=O)N1Cc1ccco1	101	1	103	-7
15	CCN(CC)C(=O)NCCN1C(=O)C2C3C=CC(C3)C2C1=O (stereo not drawn)	103	-6	102	10
16	CCOC(=O)CN1CCN(c2ccc(F)cc2)CC1	102	-15	104	-39
17	CCc1ccc2nc(NC3=NCN(Cc4ccccc4)CN3)nc(C)c2c1	100	5	101	-13
18	CCOCC(=O)Nc1ccc(C#N)cc1	103	-8	102	11
19	O=C(c1ccc(F)cc1)N1c2ccccc2C=Cc2ccccc21	98	6	103	2
20	CN(C)CCC=C1c2ccccc2C=Cc2ccccc21	102&102	-3&-17	101&100	1&-9
21	N#Cc1cc2c(N)c(C(=O)c3ccccc3)sc2nc1N	108	-3	101	-106
22	O=C1NC(C2CCCCC2)Nc2ccccc21 (stereo not drawn)	103	114	99	6
23	COCCn1cnc2c1c(=O)n(Cc1ccc(C#N)cc1)c(=O)n2Cc1ccccc1	105	-5	106	-31
24	CCN(CC)C(=O)Cn1c(S(=O)(=O)Cc2ccccc2)nc2ccccc21	107	-4	101	-19
25	CC(=O)Nc1nc2nccc(C)n2n1	102	-6	100	6
26	O=C(O)c1cccc(CSc2ncn[nH]2)c1	101	3	100	16
27	CCN(N)c1nc(Cl)cc(C)c1C#N	103	.	104	9
28	O=C(NCCc1cccs1)C1CCN(Cc2cnn(-c3ccccc3)c2-n2cccc2)CC1	100	-6	100	14
29	Cc1cc(O)c(C(c2ccncc2)N2CCCCC2)c(=O)n1Cc1ccco1 (stereo not drawn)	108	2	103	-13
30	CCOC(=O)c1c(-c2ccccc2)oc2ccc(OCC)cc12	98	.	97	-17
31	Cc1nc2sccn2c(=O)c1S(=O)(=O)NCCC(C)C	101	-9	101	-5
32	O=C(/C=C/c1ccccc1)N1CCCCC1	101	0	101	-42
33	CCCCN1C(C)=NC(C(F)(F)F)(C(F)(F)F)C2=C1CC(C)(C)CC2=O	105	1	104	-8
34	CC1(C)CC(=O)C2=C(C1)OC(N)=C(C#N)C2C#Cc1ccccc1 (stereo not drawn)	105	53	100	7
35	Cc1ccc2[nH]c(=O)c(CN(C3CCCCC3)S(=O)(=O)c3ccccc3)cc2c1	103	-10	103	-5
36	CN(CCc1ccccn1)C(=O)c1cccc(C(F)(F)F)c1	104	10	99	-23
37	O=C(COC(=O)CC1Sc2ccccc2NC1=O)NC1CC1 (stereo not drawn)	107	-7	103	-7
38	CSc1ccc(S(=O)(=O)N2CCCCC2)cc1	101	-3	100	-13
39	COc1ccc2c(c1)c1c3n2CCNC3CCC1 (stereo not drawn)	99	-41	103	-2
40	OCc1cnc(SCc2ccccc2)n1Cc1ccccc1	104	-9	100	-2
41	CCN(CC(=O)NCc1cccs1)Cc1cc(=O)oc2cc(O)ccc12	108	-8	103	-2
42	CC(C)(C)NS(=O)(=O)CC12CCC(CC1=O)C2(C)C (stereo not drawn)	101	4	99	14
43	CCCc1cc(SCC(=O)O)n2c(nc3ccccc32)c1C#N	103	89	104	-97
44	Cn1c(=O)cc(N2CCCCC2)c2c(=O)n(-c3ccccc3)c(=O)n(-c3ccccc3)c21	102	0	101	13
45	CCOC(=O)c1sc2sc(C(=O)OCC)c(CN(CC)CC)c2c1CN(CC)CC	102	-3	101	-10
46	CC/C(=N\NC(=O)C1CC1)c1cccc(Cl)c1	109	5	108	-14
47	CC(=O)Nc1ccc(C(=O)N(C)Cc2cccc(F)c2)cc1	97	-4	107	-27
48	Fc1ccccc1OCc1n[nH]c(=S)n1-c1ccccc1	100	24	99	-59
49	COc1ccc(C(=O)Nc2ccc(N3CCN(C(=O)OC(C)(C)C)CC3)nc2)cc1	102	2	106	9
50	CCCCOCC1CC(CC#CCN2CCCCC2)C(=O)O1 (stereo not drawn)	100	-4	101	-1
51	CCOC(=O)/C=C(/C)Nc1nonc1NC(C)=O	123	.	93	9
52	CC(C)(c1ccccc1)n1nnc(-c2ccccc2)n1	99	-9	101	-4
53	CC1(C)C2CC=C(/C=N/N3C(=O)NC4(CCCCC4)C3=O)C1C2 (stereo not drawn)	104	-2	99	1
54	Cc1ccc2cc(CN(C(=O)c3cccc(Cl)c3)C(C)C)c(=O)[nH]c2c1	107	-5	100	5
55	CN(C)c1nc(Nc2ccc(OC(F)(F)F)cc2)nc(NC(C)(C)C)n1	104	.	107	2
56	O=C(NC1CCSc2ccccc21)c1ccccc1 (stereo not drawn)	91	-7	98	5
57	Cc1ccccc1CN1C(=O)C(O)(CC(=O)c2ccccc2O)c2ccccc21 (stereo not drawn)	107	-3	100	.
58	O=C(NC1=NCCS1)Nc1ccc2snnc2c1	106	108	102	12
59	CCn1c(SC)nnc1C1CCCN1CC(=O)N1CCN(Cc2ccc3c(c2)OCO3)CC1 (stereo not drawn)	104	-3	104	-15
60	O=C(Nc1ccccc1)Nc1ccc(Nc2ccccc2)cc1	104	.	102	-47

# Values by screen from the entries so far.
# PV pol inh intensity, nos. 24 to 35: 107, 102, 101, 103, 100, 108, 98, 101, 101, 105, 105, 103

# 6 of these compounds in another layout.
# The line under a structure holds: PV pol inh intensity, Mtb MbtI inh, PV pol inh, MenB inh
54. Cc1ccc2cc(CN(C(=O)c3cccc(Cl)c3)C(C)C)c(=O)[nH]c2c1
    107, -5, 100, 5
55. CN(C)c1nc(Nc2ccc(OC(F)(F)F)cc2)nc(NC(C)(C)C)n1
    104, ., 107, 2
56. O=C(NC1CCSc2ccccc21)c1ccccc1 (stereo not drawn)
    91, -7, 98, 5
57. Cc1ccccc1CN1C(=O)C(O)(CC(=O)c2ccccc2O)c2ccccc21 (stereo not drawn)
    107, -3, 100, .
58. O=C(NC1=NCCS1)Nc1ccc2snnc2c1
    106, 108, 102, 12
59. CCn1c(SC)nnc1C1CCCN1CC(=O)N1CCN(Cc2ccc3c(c2)OCO3)CC1 (stereo not drawn)
    104, -3, 104, -15

# The results go on.
nr	molecule	PV pol inh intensity	Mtb MbtI inh	PV pol inh	MenB inh
61	COCC(=O)NC1CCN(Cc2nnnn2Cc2ccc3c(c2)OCO3)CC1	107	-4	102	-28
62	CCNC(=O)C1CCN(C2=NS(=O)(=O)C(c3ccc(C)cc3)=C2CC)CC1	101	6	101	1
63	O=C(c1ccccc1Cl)n1cc(Cl)cn1	101	-11	101	-8
64	O=C(NC1CC2CCC(C1)N2Cc1nnnn1Cc1ccco1)NC12CC3CC(CC(C3)C1)C2 (stereo not drawn)	102	5	101	-11
65	NC(=O)CSc1nc2cc(S(=O)(=O)Nc3cccc(Cl)c3)ccc2o1	107	-11	104	-25
66	Sc1sccc1C=NC1CCCCC1	104	99*	98	-206
67	Cc1cccc2sc(N(CCN(C)C)C(=O)c3ccc4ncsc4c3)nc12	101	15	100	-7
68	O=C1CCC/C1=C/c1ccccc1	107	4	102	.
69	COC(=O)c1ccc(CSc2ccc3nnc(-c4ccccn4)n3n2)o1	107	20	100	8
70	CCOCCC(=O)Nc1cc(C)cc(C)c1	102	-19	101	-2
71	Cc1nc2cc(NC(=O)c3ccc(S(=O)(=O)N(C)Cc4ccccc4)cc3)ccc2s1	101	2	102	-29
72	CCSC1=C(C#N)C(c2ccccc2)C(C(=O)Nc2ccccc2)=C(C)N1 (stereo not drawn)	104	9	102	-17
73	Cc1ccc(C(=O)CNc2ccccc2)cc1	109	-6	106	-25
74	Cc1cc(C)c(S)c(C)c1	97	4	100	-11
75	CN1CCCN(C(=O)C2CCN(S(=O)(=O)c3cccs3)CC2)c2nc3ccccc3nc21	109	-12	108	-16
76	N=C1C(c2ccccc2)=C(O)CN1c1ccccc1	103	-2	99	-2
77	CC(=O)OCC(=O)Nc1cc(Cl)cc(Cl)c1	103	.	101	2
78	CCc1cccc(-n2nnc(-c3nsc(NC(=O)c4ccccc4)n3)c2C)c1	103	3	101	0
79	CN=C1S/C(=C/c2cccn2-c2ccc(N(C)C)cc2)C(=O)N1C	101	-35	104	-59
80	N#Cc1ccsc1NC(=O)c1cccnc1N1CCCC1	97	6	101	6

# Compound profiles, as listed above:
# Profile of CCOCCC(=O)Nc1cc(C)cc(C)c1 : PV pol inh intensity = 102; Mtb MbtI inh = -19; PV pol inh = 101; MenB inh = -2
# Profile of N=C1C(c2ccccc2)=C(O)CN1c1ccccc1 : PV pol inh intensity = 103; Mtb MbtI inh = -2; PV pol inh = 99; MenB inh = -2
# Profile of O=C1CCC/C1=C/c1ccccc1 : PV pol inh intensity = 107; Mtb MbtI inh = 4; PV pol inh = 102; MenB inh = .

# Remaining list, next part:
nr	molecule	PV pol inh intensity	Mtb MbtI inh	PV pol inh	MenB inh
81	O=C(NCc1cccs1)c1cc2c(s1)CS(=O)(=O)C2	101	3	101	-21
82	Cn1c(=O)c2c(ncn2CC(O)CO)n(C)c1=O (stereo not drawn)	104&102	-12&-15	101&100	-10&-10
83	Cc1ccc(/C(C#N)=C\c2ccco2)cc1	105	12	101	21
84	O=C(CCN1C(=O)CSC1=O)Nc1ccccc1	100	-8	103	-45
85	Cc1ccc(C(=O)NNc2nc(Nc3ccccc3)nc(N3CCCC3)n2)cc1	103	-2	102	-4
86	O=C(Cc1ccccc1)ON=C1C=CC(=NOC(=O)c2ccco2)C=C1	103	-3	98	-6
87	NC(=O)N/N=C1\c2ccccc2-c2c(C(N)=O)cccc21	105	34	103	-19
88	CCC(C)NC(=O)c1c(C)nn(CC(C)C)c1Cl (stereo not drawn)	105	-1	101	9
89	O=C(O)CSCC(=O)NC1CCCc2ccccc21 (stereo not drawn)	100	-6	100	.
90	COC(=O)c1sc2c(C)cc(Cl)c(C)c2c1C(=O)Oc1ccccc1	101	1	107	8
91	O=c1cc(CSc2ncccn2)nc2ccc(Br)cn12	109	17	100	-6
92	O=C(CSc1n[nH]c(=O)n1C1Cc2ccccc2C1)c1ccc2c(c1)OCCO2	95	-5	102	-15
93	CCCC(=O)NC1CCS(=O)(=O)C1 (stereo not drawn)	99	-2	103	2
94	Cn1c(C(=O)Nc2ccc3c(c2)NC(=O)CC3)cc(=O)n(C)c1=O	102	0	106	-10
95	CN(C)S(=O)(=O)c1ccc(NCC(=O)N2CCN(c3ccccc3)CC2)cc1	105	20	99	7
96	NC(=O)c1c(NC(=O)c2ccc3c(c2)OCCO3)sc2c1CCC2	102	-61	104	-25
97	Clc1ccc(-c2cn3c4ccccc4nc3n2CCCNC2CCCCC2)cc1	94	-22	99	-39
98	Cc1ccc(S(=O)(=O)CC(O)CN2CCCC2=O)cc1 (stereo not drawn)	104	6	102	-14
99	C=CCn1c(CNC(=O)c2ccco2)nnc1SCC(=O)Nc1cccc(Br)c1	102	-1	101	-13
100	CCOc1ccccc1NC(=O)COC(=O)Cc1ccc(OC)cc1	103	-6	103	-12
101	CCOC(=O)c1cc(C(O)(C(F)(F)F)C(F)(F)F)c(N)o1	104	-18	104	-29
102	COc1ccc(NC(=O)c2c(NCc3ccc(C)o3)sc3c2CCCC3)cc1	105	48	101	-19
